Assay outcomes: PubChem, National Center for Advancing Translational Sciences (NCATS)
PMP22 txn prim – modulates PMP22 transcription in S16 Schwann cells | AID 1508649 | 43,000 compounds, 2% hits | Potency, µM (top dose mostly 57.5 µM), inactives show top-dose activity change, negative = inhibition, actives largely listed as inhibitors | S16 Pmp22-F2sN Schwann cells (luciferase reporters placed in the Pmp22 gene), FLuc/NLuc coincidence luminescence, 24 h; active = clear falling dose curves in both reporters; inconclusive = both reporters move, but less clearly or upward; inactive = either reporter flat; the % is the NLuc reporter signal; note: % is set by controls: 0 for no effect and ±100 for the full control effect; some results filed as inactive show a strong effect at the top dose
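Reporter cells (S16 Pmp22-F2sN, 500–1,000 per well) exposed to compounds for 24 h, 37C, 5% CO2; lysis with FLuc read after 10 min, then Stop&Glo and NLuc read after 10 min.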
HTT promoter inh – inhibits huntingtin promoter activity. HEK293 HTT promoter firefly luciferase reporter (activity 0% = vehicle and -100% = no light), 24 h. Potency, µM (doses to about 57.5 µM), without a hit: at the top dose activity change, negative = inhibition, actives largely listed as inhibitors. 48,000 compounds, 0.93% hits; active = well fitted inhibition curve with a large enough effect; inconclusive = small, poorly fitted or top-dose-only effect; inactive = no such curve, though single readings can be large or run the other way; note: nearly all actives have a fitted effect of over 50% in size
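HEK293 Fluc reporter, 2,500 cells/well, 24 h pre-culture; cpds up to 57.5 uM final, 24 h 37 degrees C; Dual-Glo, 10 min RT; normalized vehicle = 0%, zero RLU = -100%.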
Starred values were filed as active, the others as inactive; ? = inconclusive; / = not tested or not shown; [ ] = another dose, or the depositor's remark. Potency is the fitted concentration of half-maximal effect. Rows were taken by chance; any-hit rate near 2.4%.

Start of the data: the first 2 compounds, ahead of the listing:
SMILES | PMP22 txn prim | HTT promoter inh
CCC1CN(C(=O)Nc2cc(C)ccc2OC)c2cc(Cl)ccc2O1 (stereo not drawn) | -46.0% | -18.1%
CCOc1ccc(NC(=O)c2sc3nc(-c4ccc(OC)cc4)cn3c2C)cc1 | 5.3% | -10.4%

Main list (from the top)
SMILES | PMP22 txn prim | HTT promoter inh
CCC1CN(C(=O)Nc2cc(C)ccc2OC)c2cc(Cl)ccc2O1 (stereo not drawn) | -46.0% | -18.1%
CCOc1ccc(NC(=O)c2sc3nc(-c4ccc(OC)cc4)cn3c2C)cc1 | 5.3% | -10.4%
COC(=O)c1ccc(NC(=O)C2(S(=O)(=O)c3ccc(C)cc3)CC2)cc1 | 0.7% | 12.4%
Cc1ccccc1NC(=O)c1sc2nc(-c3ccncc3)ccc2c1N | ? | -28.1%
CCc1ccc(S(=O)(=O)c2nnn3c2nc(N(C)Cc2ccccc2)c2cc(Cl)ccc23)cc1 | 2.4% | -9.8%
COc1ccc(CNC(=O)Cc2ccc(NC(=O)N3CCCCc4ccccc43)cc2)cc1 | -5.3% | -23.3%
Cc1cc(NC(=O)Cn2c(=O)oc3cc(S(=O)(=O)N4CCCC4)ccc32)ccc1Br | ? | ?
COc1cc(OC)cc(C(=O)Nc2cc(-c3nc4ccccc4s3)ccc2OC)c1 | ? | -8.7%
CCN(C(=O)c1noc2c1COc1ccc(C)cc1-2)c1cccc(C)c1 | -19.7% | -15.2%
COc1ccc(-c2noc(CSc3nnc(C)n3-c3ccc(C)cc3)n2)cc1 | ? | -24.2%
COc1cccc(-n2c(=O)c3c(C)c(C)sc3n(CC(=O)NCc3ccc(C)cc3)c2=O)c1 | -22.3% | -1.2%
COc1ccccc1NC(=O)c1cc(S(=O)(=O)NCCC2=CCCCC2)ccc1F | ? | ?

Single entries from the results shown.
Value for COc1cccc(-n2c(=O)c3c(C)c(C)sc3n(CC(=O)NCc3ccc(C)cc3)c2=O)c1 under PMP22 txn prim: -22.3%
Value for Cc1ccccc1NC(=O)c1sc2nc(-c3ccncc3)ccc2c1N under HTT promoter inh: -28.1%

(list continues)
SMILES | PMP22 txn prim | HTT promoter inh
COc1ccc(N2CCN(CCCNC(=O)C3COc4ccc(OC)cc4C3)CC2)cc1 (stereo not drawn) | -25.1% | ?
COCCCNC(=O)C1CCN(Cc2cc3ccccc3n2Cc2ccccc2C)CC1 | -26.0% | -14.2%
COC(=O)c1cc2sc(C)cc2n1Cc1ccc(Br)cc1F | 7.3% | -18.2%
O=c1cc(-c2ccc(O)cc2)oc2cc(O)cc(O)c12 | / | 17.2%
Cc1ccccc1C(=O)NC1(C(F)(F)F)N=C(c2ccccc2)N(Cc2ccccc2)C1=O (stereo not drawn) | 0.6% | -24.3%
Cc1oc(-c2ccccc2Cl)nc1CSc1nc2ncccc2[nH]1 | -48.3% | -16.4%
Cc1ccc(Cl)cc1-n1ncc2c(N3CCC(C)CC3)ncnc21 | ? | ?
CC(C)c1c(C(=O)Nc2ccccc2)c(-c2ccccc2)c(-c2ccc(F)cc2)n1CC[C@H](O)C[C@@H](O)CC(=O)O | / | 6.0%
CCOc1ccc(-c2cc(C)n3nc(C(=O)Nc4ccc(C)c(C)c4)cc3n2)cc1 | -14.4% | ?
Cc1cccc(-c2nc(S(=O)(=O)c3ccc(F)cc3)c(N3CCN(c4ccccc4)CC3)o2)c1 | 3.9% | -4.9%
CC(C)c1ccc(Cn2ccc3c4c(N)nc(NC5CC5)nc4ccc32)cc1 | / | -18.8%
Cc1ccc(-n2ncc3c(Nc4cccc(C)c4C)ncnc32)cc1 | 11.0% | -9.3%
COc1ccc(OC)c(S(=O)(=O)NCCc2csc3nc(-c4ccccc4)nn23)c1 | 2.8% | -3.4%
CCCN(Cc1cccs1)C(=O)Nc1ccc(F)c(Cl)c1 | 6.2% | -0.3%
COCCCNc1nc(NCc2cccc(Cl)c2)c2cnn(C)c2n1 | -23.8% | ?
O=C(Nc1cc(F)ccc1F)C1CCN(c2nc3ccccc3n3cccc23)CC1 | ? | -10.2%
CCc1nn(CC(=O)Nc2ccc(NC(C)=O)cc2)c(=O)c2cc3sccc3n12 | -8.9% | 1.7%
Cc1ccc(Cl)cc1N1CCN(C(=O)COCc2cc(-c3ccc4c(c3)OCO4)on2)CC1 | -3.6% | -22.9%
C[C@@H](O)[C@H]1C(=O)N2C(C(=O)OCOC(=O)C(C)(C)C)=C(SC3CN(C4=NCCS4)C3)[C@H](C)[C@H]12 | / | 1.9%
O=C(Cn1ncc2c(=O)oc3ccccc3c21)Nc1cc(F)ccc1F | -13.9% | -16.6%
Cc1ccc(S(=O)(=O)c2nc(-c3cccc(Br)c3)oc2N2CCCCCC2)cc1 | -27.1% | -16.7%
Cc1c(Cl)cccc1-n1ncc(C(=O)NCCN2CCN(C)CC2)c1C1CCN(C(=O)OC(C)(C)C)CC1 | ? | -3.8%
Cc1ccc(OCC(=O)Nc2cccc(C(=O)OCc3cc(=O)n4nc(C)sc4n3)c2)cc1 | ? | 20.4%
Cc1cc2c(cc3c(SCc4ccc(Cl)cc4)nncn32)o1 | ? | -14.7%
Cc1ccc(C(=O)NCc2nnnn2-c2ccc(C)c(C)c2)cc1 | 8.4% | -10.6%
CCOCCCn1c(SCC(=O)Nc2ccc(CC)cc2)nc2ccccc2c1=O | ? | ?
Cc1oc(-c2ccccc2)nc1CNC(=O)Nc1ccccc1 | 3.0% | 0.0%
COC(=O)c1c(Cl)c(Cl)c(C(=O)OC)c(Cl)c1Cl | / | 9.3%[116 µM]
O=C(NCCSc1c(-c2ccc(F)cc2)[nH]c2ccccc12)c1ccc(S(=O)(=O)N2CCOCC2)cc1 | ? | ?
COc1cc(OC)cc(OC)c1 | / | 10.4%
COc1ccc(C2=NS(=O)(=O)N(C)C(C(=O)NC(C)c3ccccc3)=C2)cc1 (stereo not drawn) | -15.9% | -23.8%
CCC(C)NC(=O)c1sc2nc(C)c(C(=O)Nc3ccc(C)cc3C)c(-c3ccccc3Cl)c2c1N (stereo not drawn) | 10.3% | -26.7%
CC=C(C(=CC)c1ccc(O)cc1)c1ccc(O)cc1 | / | -31.0%
Cc1ccc(C2CCN(C(=O)c3cnn(-c4ccc(C)c(C)c4)c3C3CCN(C(=O)OC(C)(C)C)CC3)C2)cc1 (stereo not drawn) | 1.0% | 0.5%
COc1ccccc1CNc1ncnc2c1nc1n2CCCC1 | -3.1% | -26.5%
CC(=O)N1CCc2cc(S(=O)(=O)NC(C(=O)Nc3ccc(C)cc3C)C(C)C)ccc21 (stereo not drawn) | 12.3% | -27.5%

Reformatted with two lines to a compound: part of the list above.
Under each structure – PMP22 txn prim	HTT promoter inh
COc1cccc(-n2c(=O)c3c(C)c(C)sc3n(CC(=O)NCc3ccc(C)cc3)c2=O)c1
→ -22.3%	-1.2%
COc1ccccc1NC(=O)c1cc(S(=O)(=O)NCCC2=CCCCC2)ccc1F
→ ?	?
COc1ccc(N2CCN(CCCNC(=O)C3COc4ccc(OC)cc4C3)CC2)cc1 (stereo not drawn)
→ -25.1%	?

The list goes on:
SMILES | PMP22 txn prim | HTT promoter inh
O=C(Nc1ccc2nc(SCCOc3ccccc3)sc2c1)c1ccc2c(c1)OCO2 | ? | -3.4%
O=C(CSc1ncc(CO)n1Cc1ccc(Cl)cc1)NCc1ccc(F)cc1 | -3.2% | -17.1%
CCOc1ccc(CCNC(=O)c2cn(C)c3ccc(S(=O)(=O)N4CCCCC4)cc3c2=O)cc1OCC | -18.0% | 19.1%
CCC1CCCCN1Cc1cn2c(-c3ccc(Br)cc3)nnc2s1 (stereo not drawn) | -23.4% | 5.4%
O=C(NCc1ccccc1F)c1sc2ncccc2c1-n1cccc1 | -91.9% | -22.6%
Cc1oc2ncn(C)c(=O)c2c1C(=O)N1CCN(c2ccccc2F)CC1 | -2.1% | -12.0%
COC(=O)C1CCN(CC(=O)Nc2cc(C)c3c(=O)oc4ccccc4c3n2)CC1 | -1.2% | -0.6%
Cc1ccc(Cl)cc1NC(=O)Cn1c(=O)n(C(C)C)c(=O)c2oc3ccccc3c21 | ? | 5.2%
Cc1ccc(-c2cc(C(F)(F)F)n3nc(-c4cccc(Br)c4)cc3n2)cc1 | 54.9% | -11.2%
O=C(OCc1ccco1)c1ccc2c(c1)N(Cc1cccc(F)c1)C(=O)c1ccccc1S2 | -19.0% | ?
CCOC(=O)c1c(C)[nH]c(CCC(=O)NCc2ccc(F)cc2)c1C | -18.8% | -7.5%
Clc1cccc(-c2noc3ncnc(NC4CCCCC4)c23)c1 | ? | ?
Cc1ccccc1NC(=O)CCC(=O)N1CCSc2ccccc21 | 22.1% | -15.4%
CN(C)C1(CNC(=O)COc2ccc([N+](=O)[O-])cc2)CCCCC1 | 1.0% | -14.0%
Cc1cc2c(cc1S(=O)(=O)N(C)CC(=O)Nc1cccc(C#N)c1)OCC(=O)N2 | ? | ?
Cc1ccc(C)c(N2CCN(C(=O)Cn3ncc4c(=O)oc5ccccc5c43)CC2)c1 | -16.8% | 4.6%
O=C(NCc1ccccc1)c1ccc(Cn2c(=O)c3cccn3c3cccnc32)cc1 | -59.4% | 0.6%
Cc1ccc(CN2CCCN(Cc3c(C)cc(C)cc3C)S2(=O)=O)cc1 | 9.5% | 1.7%
O=C(NC1CC(=O)N(c2cccc(F)c2)C1)c1cc2ccccc2o1 (stereo not drawn) | -5.3% | 11.2%
CCOc1ccc(NC(=O)c2ccc(F)c(S(=O)(=O)NCc3ccc4c(c3)OCO4)c2)cc1 | ? | ?
Cc1ccc(C(=O)NCCc2ccc(Cl)cc2)cc1-n1c(C)nc2cccnc21 | -24.3% | ?
CC(C)NC(=O)C1CCN(C(=O)c2cnn(-c3ccccc3)c2-n2cccc2)CC1 | 7.0% | -12.6%
CCOc1ccc(CNS(=O)(=O)c2ccc(-c3coc(C)n3)cc2)cc1 | -14.0% | ?
COc1ccc(NC(=O)NC2COc3ccccc3C2)cc1Cl (stereo not drawn) | -12.9% | 23.2%
O=C(Nc1cc2ccc(O)cc2oc1=O)c1ccccc1 | ? | 22.5%
CCOc1ccc(-c2cc(CCCC(=O)NCCc3ccc(SC)cc3)no2)cc1 | -11.9% | 0.794µM*
COCCNC(=O)CSc1nc2cc3c(cc2c(=O)n1CCCC(=O)NCc1ccc2c(c1)OCO2)OCO3 | 8.6% | -15.2%
O=C(CSc1nc(-c2ccccc2)[nH]c1-c1ccccc1)Nc1ccc2c(c1)OCO2 | ? | ?
CCS(=O)(=O)N1CC(=O)N(c2cccc(C)c2C)C(C)(C(=O)NC2CCCCC2)C1 (stereo not drawn) | -1.0% | 3.9%
CCn1c(=O)n(-c2ccc(F)c(Cl)c2)c(=O)c2sc3ccccc3c21 | -4.5% | -6.0%
COc1ccc(CNC(=O)CS(=O)(=O)c2cccc3nsnc23)cc1 | -9.1% | -8.1%
Cc1cccc(S(=O)(=O)c2cn(Cc3ccc(F)cc3)c3cc(N4CCOCC4)c(F)cc3c2=O)c1 | -18.0% | ?
COc1ccc(NC(=O)Nc2cccc(-c3noc(C)n3)c2)cc1 | 3.4% | -23.2%
Fc1ccc(-n2ncc3c(NCCC4=CCCCC4)ncnc32)cc1 | -128.4% | 37.7%[activator]
CC1CCN(S(=O)(=O)c2ccc3c(c2)N(CC(=O)NCCc2ccccc2)C(=O)CO3)CC1 | -25.2% | 0.8%
C=Cc1ccc(Cn2nc(-c3ccc(C)c(S(=O)(=O)N(CC)CC)c3)ccc2=O)cc1 | -31.9% | ?
CCn1ccc2cc(S(=O)(=O)N3CCCN(C(=O)NCC(=O)OC)CC3)ccc21 | -3.2% | -21.1%
Cc1cc(CN2CCN(c3ccc(F)cc3)CC2)cs1 | -12.2% | ?
Cc1cccc(N2CCN(C(=O)c3cc4c(=O)n(C)c5ccccc5c4s3)CC2C)c1 (stereo not drawn) | -7.9% | -9.0%
CC(C)OCCCNC(=O)c1cc2c(-c3ccc(Cl)cc3)nn(C)c2s1 | ? | -29.9%
Cc1ccc(C)c(NC(=O)CN2C(=O)c3cccnc3Oc3ccc(C)cc32)c1 | -25.4% | -3.7%
Cc1cc(Br)ccc1NC(=O)C1CCN(S(=O)(=O)c2ccc(Br)s2)CC1 | -7.5% | 0.4%
CCCCOc1ccccc1C1CC(=O)Nc2ccc3ccccc3c21 (stereo not drawn) | ? | ?
O=C(Nc1ccc(F)cc1)c1csc2c1CCCCC2 | -18.8% | ?
O=C(CSC1=Nc2ccccc2N=C(c2ccc(F)cc2)C1)Nc1cc(F)ccc1F | -50.6% | -0.5%
CC(=O)N1CCCc2cc(S(=O)(=O)N(C)CC(=O)Nc3ccc(F)cc3Cl)ccc21 | ? | ?
CC(C)(Oc1ccc(Cl)cc1)C(=O)Nc1ccc(-c2nc3ncccc3o2)cc1 | -13.7% | -0.2%
O=C(NCc1ccc(Cl)cc1)C(=O)NCC(c1cccs1)S(=O)(=O)c1ccc(Cl)cc1 (stereo not drawn) | ? | ?
CCOCCCNC(=O)c1[nH]c2cc(OC)ccc2c1Sc1ccccc1 | 22.8% | -26.2%
Cc1cc(C)n(CCC(=O)Nc2ccc(Cl)cc2)n1 | 31.9% | 4.0%
Cc1ccc(Cn2c(CN3CCC(C(=O)NCC(C)c4ccccc4)CC3)cc3ccccc32)cc1 (stereo not drawn) | -51.4% | ?
